NPYLR7 agonist – activates Aedes aegypti NPYLR7 receptor; HEK293T NPYLR7/Galpha15, GCaMP6s calcium fluorescence; activation, % at 10 µM; actives 0.15% (n = 270,000); in the data active = activation above about 40%;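 also: 0% = vehicle and 100% = reference agonist at the receptor; some compounds past the cut are filed as inactive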
NPYLR7 agonist max-min – second read-out of NPYLR7 agonist, no call of its own (marks repeat the call); activation, %; measured here: Max-Min RFU normalised activation; some inactives read as strong as hits;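 span of the calcium signal over five minutes; 0% = vehicle and 100% = native peptide agonist; compound fluorescence can raise it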
The depositor's hits bear a star; & = joins results of further samples. A portion of the library (hit frequency here may not be typical).

SMILES | NPYLR7 agonist | NPYLR7 agonist max-min
CS(=O)(=O)N1CCNC[C@@H]1C(=O)N[C@@H](CC1CCCCC1)C(N)=O | -7 | -12
CNCC(=O)N(C)Cc1sc2ccccc2c1Cl | 9 | 5
CC(C)(C)c1ccc(C(=O)N2CCC2(C)C(=O)NS(=O)(=O)c2ccc(C#N)cc2)cc1 (stereo not given) | 0 | 1
O=C1CCCN1CC(=O)N1N=C2/C(=C\c3ccc(F)cc3)CCCC2C1c1ccc(F)cc1 (stereo not given) | 1 | 3
O=C(c1cn(CCCc2ccccc2)nn1)N1CCN(c2ccc(Cl)cn2)CC1 | 1 | 0
Cn1ccnc1SCCNC(=O)C1CC2(CCNCC2)CN1 (stereo not given) | 19 | 6
CC(C)Cn1ccnc1NC(=O)C1CC2CCC1C2 (stereo not given) | 0 | -1
Cc1cccc(-n2ncc3c(=O)n4c(nc32)SCC4CC(=O)NCc2ccco2)c1 (stereo not given) | 4 | 2
COc1cccc2sc(N(Cc3cccnc3)C(=O)C3CCCN3S(C)(=O)=O)nc12 (stereo not given) | 1 | 3
N#CC1C(=N)Oc2c(oc(CO)cc2=O)C12C(=O)N(CC(N)=O)c1ccccc12 (stereo not given) | -4 | -5
Cc1ccc(CN(Cc2ccc3c(c2)OCO3)C(=O)CN(CCN2CCOCC2)C(=O)C2C[C@H]2c2ccccc2)o1 (stereo not given in full) | -1 | 2
CC(C)CCn1c(N2CCN(Cc3ccc(Cl)cc3)CC2)nc2c1c(=O)[nH]c(=O)n2C | 9 | 6
CCOC(=O)c1cc(-c2cccc(NC(=O)c3cc(Cl)cnc3Cl)c2)n(-c2ccc(F)cc2)n1 | 28 | 18
CC(C)(C)c1ccc(OCC(=O)Nc2cc(-c3onc4c3CCCC4)ccc2Cl)cc1 | 1 | -5
CCn1c(C)cc(O)c(C(c2ccncc2)N2CCC(C)CC2)c1=O (stereo not given) | 18 | 12
Clc1ccc(Oc2cc(Cl)ncn2)cc1 | 15 | 18
O=C(c1ccc(CSc2nc(-c3ccccc3)cc(N3CCOCC3)n2)cc1)N1CCCC1 | 7 | 12
CCCCN(CC(=O)Nc1cc(C(C)(C)C)nn1-c1cccc(C)c1)C(=O)Nc1cccc(C)c1C | -5 | 2
COC(=O)c1c(C)[nH]c(C(=O)OC(C)C(=O)Nc2ccc3c(c2)OCO3)c1C (stereo not given) | 10 | 6
C[N+]([O-])=Cc1ccc(C#N)cc1 | 3 | 2
COc1cc(C(=O)Oc2ccc(N(C)C3=NS(=O)(=O)c4ccccc43)cc2)cc(OC)c1OC | -7 | -13
C=c1cc(C)n(CC(=O)Nc2cc(C)ccc2C)c(=O)c1=C1N=C(c2ccccc2)NO1 | 0 | -7
Cc1nc(CN2CCCN(CCC#N)CC2)no1 | 1 | -2
CC1CCCC(NC(=O)CSc2nc3ccc(Cl)cc3o2)C1C (stereo not given) | 6 | 4
CCN(CC)CCSc1c(C)cnc2c1c(=O)n(C)c(=O)n2C | 6 | 12
C=CCn1c(=O)c(C#N)cc2c(=O)n3ccccc3nc21 | 4 | 2
N#CC(=C1N=c2ccccc2=N1)c1c(O)[nH]c2ccccc12 | 1 | -1
O=C(N[C@H]1CCC[C@@H]1OCc1ccccc1)c1ccc(-c2cc(-c3ccccc3)n[nH]2)cc1 | -3 | -3
COCc1ccc(CN2CCc3c([nH]c4ccccc34)C2CC(C)C)o1 (stereo not given) | 8 | 13
CC(C)Nc1nc(COc2ccccc2)no1 | 2 | 639

Filtered by structure: the compounds so far with sulfur
SMILES | NPYLR7 agonist | NPYLR7 agonist max-min
CS(=O)(=O)N1CCNC[C@@H]1C(=O)N[C@@H](CC1CCCCC1)C(N)=O | -7 | -12
CNCC(=O)N(C)Cc1sc2ccccc2c1Cl | 9 | 5
CC(C)(C)c1ccc(C(=O)N2CCC2(C)C(=O)NS(=O)(=O)c2ccc(C#N)cc2)cc1 (stereo not given) | 0 | 1
Cn1ccnc1SCCNC(=O)C1CC2(CCNCC2)CN1 (stereo not given) | 19 | 6
Cc1cccc(-n2ncc3c(=O)n4c(nc32)SCC4CC(=O)NCc2ccco2)c1 (stereo not given) | 4 | 2
COc1cccc2sc(N(Cc3cccnc3)C(=O)C3CCCN3S(C)(=O)=O)nc12 (stereo not given) | 1 | 3
O=C(c1ccc(CSc2nc(-c3ccccc3)cc(N3CCOCC3)n2)cc1)N1CCCC1 | 7 | 12
COc1cc(C(=O)Oc2ccc(N(C)C3=NS(=O)(=O)c4ccccc43)cc2)cc(OC)c1OC | -7 | -13
CC1CCCC(NC(=O)CSc2nc3ccc(Cl)cc3o2)C1C (stereo not given) | 6 | 4
CCN(CC)CCSc1c(C)cnc2c1c(=O)n(C)c(=O)n2C | 6 | 12

(list continues)
SMILES | NPYLR7 agonist | NPYLR7 agonist max-min
COc1cc(-c2nnc(SCc3cc(=O)n4ccsc4n3)o2)cc(OC)c1OC | 13 | 16
CN(C)c1ncc2c(n1)CCCC2NCc1ccc(CO)o1 (stereo not given) | 0 | -5
CC(C(=O)N(C)CC(=O)N1CCCCc2ccccc21)n1cccn1 (stereo not given) | 1 | -1
CCOc1ccc(C(=O)c2nc3c(n2O)CCCC3)cc1 | 16 | 8
COCCC(=O)N1CCC2(CCCN(CCCc3ccccc3)C2)C1 (stereo not given) | 3 | -1
CCCNC(=O)CN1CCN(C(=O)c2cn(CCOC)cc3c(=O)n(-c4ccccc4)nc2-3)CC1 | -3 | -6
C(=N/Nc1nc(N2CCCCC2)nc(N2CCOCC2)n1)/c1ccncc1 | -6 | -7
Cc1ccc2nc(SCc3ccc(F)cc3)nc(=O)n2c1 | 2 | 2
CN(Cc1cccnc1)C(=O)C(N)c1ccccc1 (stereo not given) | 1 | -1
CCCn1cnnc1CNC(=O)c1cc(Cn2ccc3ccccc32)[nH]n1 | 9 | 3
CO[C@H]1COC[C@@H]1n1cnc(-c2ccccc2)c1-c1ccc2occc2c1 | -9 | -15
CCSc1nc(NC(C)C)c2cnn(CCNC(=O)Cc3ccc(F)cc3)c2n1 | -2 | -4
CC(=O)NCCC1CN(Cc2cccc(-n3cccn3)c2)CCO1 (stereo not given) | 8 | 4
CCOc1ccc(CC(=O)Nc2c(C)nc3c(C)cccn3c2=O)cc1 | 5 | 3
CCc1nn(CC(=O)NC2CC2)c(=O)c2cc3occc3n12 | -5 | -1
CCCCOC(=O)c1cc(-c2ccc(/C=C3\C(=O)N(c4ccccc4)N=C3C)o2)ccc1Cl | 0 | 7
CC(C)CN(Cc1ccc(C(O)(c2ccccc2)c2ccccc2)o1)Cc1ccccc1F | -8 | 3
CCCOCC1CCN(c2cc(N(C)C)ncn2)C1 (stereo not given) | 5 | 1
COc1ccc(-c2cc(C(=O)NC(C)c3ccccc3)n3nc(-c4ccc(Cl)cc4)cc3n2)cc1 (stereo not given) | -7&18 | 4&16
C=CCNC(=O)Cn1c(CO)cnc1SCc1ccc(Br)cc1 | 5 | 1

Single values from the list.
Under NPYLR7 agonist, CO[C@H]1COC[C@@H]1n1cnc(-c2ccccc2)c1-c1ccc2occc2c1 has -9
Under NPYLR7 agonist, CCCOCC1CCN(c2cc(N(C)C)ncn2)C1 (stereo not given) has 5

(list continues)
SMILES | NPYLR7 agonist | NPYLR7 agonist max-min
CCSc1nc(NC(C)C)c2cnn(CCNC(=O)Cc3ccc(OC)cc3)c2n1 | -4 | -6
CCCc1nccn1-c1cccc(CN2CCCC2)c1 | -2 | -6
CN(CC(=O)Nc1ccc(F)cc1)C(=O)c1cc2ccccc2o1 | 5 | 1
CN(C)C(=O)C1CN(C(=O)c2coc(COc3cccc(F)c3)n2)CCO1 (stereo not given) | -7 | -15
COCCCNCC(=O)N1CCc2sccc2C1COc1ccc(Cl)c(C)c1 (stereo not given) | 26 | 26
O=C(NC1CCCC1)c1cc(=O)c(OCc2ccc(F)cc2)co1 | 2 | -1
CC(=O)c1ccc(NC(=O)CSc2nnc(NCC(C)C)s2)cc1 | 6 | 4
COc1ccc(S(=O)(=O)N(Cc2ccco2)Cc2nccn2Cc2cccc(Cl)c2)cc1 | 13 | 8
COCCNC(=O)C(NC(=O)c1cccc(C)c1)C1CCN(C(=O)c2ccc(F)cc2)CC1 (stereo not given) | 9 | 13
Cc1ccc(NC(=O)CSc2nc(N)c(NC(=O)c3ccc(Br)o3)c(=O)[nH]2)c(C)c1 | -3 | -3
OCC1(CCc2ccccc2)CCCN(c2ncnc3nc[nH]c23)C1 (stereo not given) | -4 | -5
CCN(CC)c1ccc2cc(-c3nnc(Nc4ccc(Oc5ccc(Cl)cc5)cc4)s3)c(=O)oc2c1 | -3 | 9
Cc1cc(C)n(CC(C)CNC(=O)NCCc2cccs2)n1 (stereo not given) | 4 | 1
O=c1[nH]nc(SCc2ccc(F)c3cccnc23)n1C1CC1 | 1 | 1
COc1ccc(OC)c(NC(=S)NCCN2CCOCC2)c1 | -16 | -20
Cc1cccc(CO[C@]2(C(=O)NCCN3CCCC3)CC(OCc3ccccc3C#N)[C@@H]3OC(C)(C)O[C@@H]3C2)c1 (stereo not given in full) | 22 | 22
CCOC(=O)c1c(C)n(OCc2ccccc2)c2ccc3nonc3c12 | 3 | 3
O=C(Nc1ccc(Cl)cc1Cl)C1CCCN1C(=O)c1cnccn1 (stereo not given) | 0 | -1
Cn1c2ccccc2n2c(=N)c3cc([N+](=O)[O-])ccc3c(C#N)c12 | -6 | -10
O=C(NCC1CCCO1)c1cccnc1N1CCN(C(=O)c2cc(F)cc(F)c2F)CC1 (stereo not given) | 2 | 0

Of the compounds above, 2 have bromine.
SMILES | NPYLR7 agonist | NPYLR7 agonist max-min
C=CCNC(=O)Cn1c(CO)cnc1SCc1ccc(Br)cc1 | 5 | 1
Cc1ccc(NC(=O)CSc2nc(N)c(NC(=O)c3ccc(Br)o3)c(=O)[nH]2)c(C)c1 | -3 | -3

The list goes on:
SMILES | NPYLR7 agonist | NPYLR7 agonist max-min
CC(C)Oc1cnn(-c2ccc(Cl)cc2)c(=O)c1Nc1cccc(C(=O)NCc2ccco2)c1 | -2 | 8
CS(=O)(=O)NCC1CN(c2ccc(Cl)c(Cl)c2)C(=O)O1 (stereo not given) | 1 | 6
O=C(NCc1cc(-c2ccc3c(c2)OCO3)on1)C1CCCC1 | 1 | 0
CCOC(=O)c1scc(-c2ccc(C)cc2)c1S(=O)(=O)N1CCC2(CC1)OCCO2 | 8 | 7
CCCc1ccccc1N1C(=O)CSC1c1cccc(NC(=O)COc2ccc(Cl)cc2)c1 (stereo not given) | 22 | 28
Cc1nn2cc(CCNC(=O)C3CC(=O)N(CC(C)C)C3)nc2s1 (stereo not given) | 7 | 4
O=C(c1ccc(Cl)cc1)N1CCSC12CCN(S(=O)(=O)c1cccc(C(F)(F)F)c1)CC2 | -3 | 1
CCn1cc(SCC(=O)N2C[C@H](N)C[C@H]2C(=O)NC)c2ccccc21 | 13 | 8
COc1ccc(-c2cc(CC(=O)NC3CCCC3)no2)cc1OC | 11 | 10
COc1ccc(C2SCC(=O)N2Cc2ccco2)c(OC)c1 (stereo not given) | -10 | -9

A draw from above in order of SMILES length, highest first:
SMILES | NPYLR7 agonist | NPYLR7 agonist max-min
COc1ccc(-c2cc(C(=O)NC(C)c3ccccc3)n3nc(-c4ccc(Cl)cc4)cc3n2)cc1 (stereo not given) | -7&18 | 4&16
CCCc1ccccc1N1C(=O)CSC1c1cccc(NC(=O)COc2ccc(Cl)cc2)c1 (stereo not given) | 22 | 28
CC(C(=O)N(C)CC(=O)N1CCCCc2ccccc21)n1cccn1 (stereo not given) | 1 | -1
O=c1[nH]nc(SCc2ccc(F)c3cccnc23)n1C1CC1 | 1 | 1

(more compounds)
SMILES | NPYLR7 agonist | NPYLR7 agonist max-min
COc1ccccc1NC(=O)N(Cc1cc(Cl)ccc1OS(=O)(=O)c1ccc(NC(C)=O)cc1)CC1CCCO1 (stereo not given) | 18 | 19
N#Cc1c2c(c(N3CCN(CCO)CC3)n3c1nc1ccccc13)CCC2 | 10 | 5
COC(=O)[C@H]1CN(C(=O)N2CCOCC2)CCN1C(=O)CSC | -8 | -15
CC[C@H]1CN(c2nc(C)cc(C(=O)OC)n2)CC[C@@]1(C)O | -1&17 | 3&8
COc1cccc(-c2nc3cc(C)cc(C)n3c2NC(C)(C)C)c1 | -2 | 1
COc1ccc(CCN(C)C(=O)c2ccc(CSc3nc(Cl)cc(N4CCC5(CC4)OCCO5)n3)cc2)cc1OC | 19 | 29
O=C(NCC(F)(F)F)C1CC=CCC1c1nc2ccccc2s1 (stereo not given) | 0 | -1
Cc1cc(C)c(C)c(S(=O)(=O)NCC(=O)N(C)C)c1C | 4 | 4
O=C(OCc1cc(=O)n2cc(Br)ccc2n1)c1cnccn1 | 2 | 2
COc1ccc(S(=O)(=O)NCC2CCCN(C(=O)c3ccoc3)C2)cc1 (stereo not given) | 0 | -2
COc1ccc2c(c1)C(C)(Cc1c(Cl)cccc1Cl)C(=O)N2 (stereo not given) | 9 | 6
CC(C)c1nc(N2CCN(CCn3c(=O)oc4ccccc43)CC2)no1 | 7 | 3
CCC(C)Cn1c(CC(C)(C)C)nc2ccccc21 (stereo not given) | 3 | 2
Cc1nc(COc2ccc(Cl)cc2)sc1C(=O)N1CCNC(=O)C1C(C)C (stereo not given) | 5 | 4
CS(=O)(=O)N(c1ccc(F)cc1)C1C=CS(=O)(=O)C1 (stereo not given) | 1&3 | 0&4
Cc1nc2ncccn2c1C(=O)N1CCCC(C(=O)c2ccc3c4c(cccc24)CC3)C1 (stereo not given) | 9 | -3
O=C(CSc1nc(=O)n(CCCO)c2c1CCC2)NCc1ccc(Cl)cc1 | -6 | -14
Cc1noc(C)c1CC(=O)NC1CCCN(Cc2ccccc2)C1 (stereo not given) | 8 | 3
COc1ccc(CCNC(=O)CC(c2ccc(OCc3ccccc3)cc2)c2c[nH]c3ccccc23)cc1OC (stereo not given) | 2 | 10
COC(=O)CN(c1ccccc1C)S(=O)(=O)c1cc(C)ccc1C | 1 | -4
OC(c1ccc(F)cc1)(c1ccc(F)cc1)c1ccc(CN(Cc2ccsc2)C2CC2)o1 | -5 | 18

Screening results (PubChem)
